VDR inh = blocks the human vitamin D receptor | P11473 | Potency, µM, for inactives: max response, negative = inhibition, most hits filed as inhibitors | hit rate 0.93% among 400,000 | VDR-SRC2-3 peptide fluorescence polarization, 2 h; active = well fitted inhibition curve with a large enough effect; inconclusive = small, poorly fitted or top-dose-only effect, or another doubt; inactive = no such curve, though single readings can be large or run the other way; note: series mostly up to about 120 µM
Target sequence (P11473 whole entry, looked up): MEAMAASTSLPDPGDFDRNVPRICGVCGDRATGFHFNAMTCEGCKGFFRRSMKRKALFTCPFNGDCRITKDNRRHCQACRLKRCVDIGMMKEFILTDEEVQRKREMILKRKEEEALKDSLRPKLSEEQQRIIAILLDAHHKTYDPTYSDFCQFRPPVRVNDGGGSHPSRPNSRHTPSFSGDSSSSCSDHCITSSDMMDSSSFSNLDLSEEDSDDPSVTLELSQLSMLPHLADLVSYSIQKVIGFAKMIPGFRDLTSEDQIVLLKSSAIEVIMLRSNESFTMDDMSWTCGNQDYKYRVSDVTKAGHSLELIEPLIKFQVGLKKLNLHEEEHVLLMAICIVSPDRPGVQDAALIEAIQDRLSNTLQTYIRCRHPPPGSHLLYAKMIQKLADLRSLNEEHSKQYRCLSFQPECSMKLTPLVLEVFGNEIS
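VDR–SRC2-3 interaction, FP format. Cmpds 23 nl via pintool, brief spin, 2 h ambient incubation.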
The depositor's hits bear a star; ? = inconclusive; & = joins results of further samples. % is set by controls: 0 for no effect and ±100 for the full control effect; potency is the fitted concentration of half-maximal effect. An excerpt; rates above refer to the full screens.

VDR inh	SMILES
-18.2%	CC1c2cc3c(cc2CCN1C(=O)c1cccc(Cl)c1)OCCCO3 (stereo not given)
-11.4%	Cc1ccccc1Nc1cc(C(=O)NCc2cccs2)c2ccccc2n1
-6.0%	O=C(Cn1c(=O)oc2cc(S(=O)(=O)N3CCCC3)ccc21)Nc1ccc(C(F)(F)F)cc1
-14.2%	Cc1cccc(/C(N)=N/OC(=O)c2ccc(Cl)cc2Cl)c1
?	COc1cccc2oc(-c3ccco3)cc(=O)c12
-22.4%	COc1ccc(Cl)cc1Nc1nc(NCCO)nc(N2CCCCC2)n1
15.8%	O=C(O)c1ccc2ncsc2c1
6.4%	CCCc1cc(=O)oc2cc(OCC(=O)Nc3ccccn3)ccc12
-17.9%	O=C(O)CNC(=O)c1nc(-c2ccccc2)n(-c2ccccc2)n1
3.0%	O=C(O)[C@H](CSCc1ccccc1)NS(=O)(=O)c1ccc(F)cc1
-1.6%	COc1ccc(NS(=O)(=O)c2cccc3cccnc23)cc1Cl
-25.6%	CCOc1ccc(S(=O)(=O)N/N=C(\C)c2ccc3c(c2)OCO3)cc1
-23.8%	CC(NC(=O)Cn1cc(C(=O)C2CC2)c2ccccc21)c1ccccc1 (stereo not given)
-16.3%	Cc1ccc(-c2cc(C(=O)O)n(Cc3ccccc3)n2)cc1
-11.1%	Cc1cccc(C)c1NC(=O)COc1ccc2c(C)c(Cc3ccccc3)c(=O)oc2c1
4.9%	COc1ccc(CCNC(=O)c2cc(-c3ccc(C)cc3)nc3n[nH]c(-c4ccccc4)c23)cc1OC
10.1%	O=C(CCCN1C(=O)c2ccccc2C1=O)Nc1nccs1
?	Cc1cccc(NC(=O)CC2SC(=O)N(c3ccccc3)C2=O)c1 (stereo not given)
-1.9%	CCOc1ccc2ccccc2c1/C=N\NC(=O)OC
0.5%	CC(=O)C[C@H]1c2cc(C(F)(F)F)ccc2S(=O)(=O)N1c1ccccc1
-7.4%	O=C1CCCN1c1ccc(N2CCCC2=O)cc1
-0.2%	C=CCOc1c(Br)cc(CNc2ccc(NC(=O)CCC)cc2)cc1OCC
5.0%	Cc1cc(C)c(/C=C/c2onc(C)c2S(=O)(=O)N2CCC(C(=O)NCc3ccccc3Cl)CC2)c(C)c1
-13.8%	CC(C)(C)c1ccc(S(=O)(=O)N2CCC(O)(c3ccc(Cl)cc3)CC2)cc1
-12.2%	Clc1cccc(-c2nc3nc4ccccc4nc3n2Cc2ccccc2)c1
24.1%	CC(=O)Nc1cccc(N=NN2CCCCC2)c1
12.0%	COc1ccc(NC(=O)c2ccc(NC(=O)CN3CCN(c4ccc(O)cc4)CC3)cc2)cc1
-16.1%	O=C(COC(=O)c1cc(S(=O)(=O)N2CCCC2)ccc1O)NCCc1ccccc1
6.1%	O=C(CSc1nnnn1-c1ccccc1)NCCCN1CCCC1=O
0.0%	CCOC(=O)N1CCN(C(=O)c2ccc(N(Cc3ccccc3)S(C)(=O)=O)cc2)CC1
0.8%	CCN(c1ccc(C)c(C)c1)S(=O)(=O)c1c(C)[nH]c(=O)[nH]c1=O
22.5%	Cn1c(SCC(=O)N2c3ccccc3Sc3ccccc32)nnc1-c1ccco1
14.3%	CCC(C)(C(=O)NC1CCCCC1)N(Cc1ccco1)C(=O)Cc1cccs1 (stereo not given)
1.3%	Cc1cccn2c(=O)c3cc(C(=O)NCC4CCCO4)c(=N)n(C4CCCC4)c3nc12 (stereo not given)
0.2%	Cn1c(C(C(=O)NCC2CCCO2)N(CCc2ccccc2)C(=O)Cn2nnc3ccccc32)nc2ccccc21 (stereo not given)
-10.5%	CS(=O)(=O)N(CC(=O)N1CCCCCC1)Cc1ccc(Cl)cc1
-7.0%	CCN(C(=O)CSc1nnnn1-c1ccccc1OC)C1CCS(=O)(=O)C1 (stereo not given)
4.6%	Cc1ccc(C2N(c3ccc(Cl)cc3)C(=O)N3CCCN23)cc1 (stereo not given)
19.1%	COC(=O)CN1C(=O)CSc2ccc(S(=O)(=O)Nc3cccc(C)c3)cc21
-8.5%&4.6%	Cc1ccc2c(c1)sc1nc(=O)n(-c3cccc(Cl)c3)c(=O)n12
16.4%	CCc1ccc(C2c3c(oc4cc(C)c(C)cc4c3=O)C(=O)N2c2nc(C)c(C(=O)OC)s2)cc1 (stereo not given)
16.3%	Cc1cn2c(=O)cc(COC(=O)COc3ccc(C)c(C)c3)nc2s1
-6.2%	COc1ccc([C@@H]2[C@@H]3C(=O)N(C(C)(C)C)C(=O)[C@@H]3[C@]3(Cc4ccccc4)C(=O)N(c4ccc(Br)cc4)C(=O)N23)cc1
5.2%	CCOC(=O)C(NC(=O)C1CCCN1C(=O)OCc1ccccc1)C(=O)OCC (stereo not given)
-27.2%	CCCc1ccc(C(=O)NNc2ccc(F)cc2)cc1
-3.5%	CC(C)(C)OC(=O)N1CCC(NC(=O)c2nc[nH]c2C(=O)N2CCc3ccccc3C2)CC1
-0.6%	COc1cc(CCCN2C(N)=NC[C@@H]2Cc2ccccc2)cc(OC)c1OC
-1.2%	O=C(N/N=C/c1ccccc1)c1cccc2ccccc12
5.8%	CCCn1c(=O)c2c(nc(Br)n2CCC)n(C)c1=O
-1.1%	C=CCSc1nnc(-c2cc(Br)ccc2N)c(=O)[nH]1

4 of the compounds above, field by field:
> Cc1cccn2c(=O)c3cc(C(=O)NCC4CCCO4)c(=N)n(C4CCCC4)c3nc12 (stereo not given)
- VDR inh: 1.3%
> Cn1c(C(C(=O)NCC2CCCO2)N(CCc2ccccc2)C(=O)Cn2nnc3ccccc32)nc2ccccc21 (stereo not given)
- VDR inh: 0.2%
> CS(=O)(=O)N(CC(=O)N1CCCCCC1)Cc1ccc(Cl)cc1
- VDR inh: -10.5%
> CCN(C(=O)CSc1nnnn1-c1ccccc1OC)C1CCS(=O)(=O)C1 (stereo not given)
- VDR inh: -7.0%

The main list resumes with the 2 entries that preceded the break.
VDR inh	SMILES
5.8%	CCCn1c(=O)c2c(nc(Br)n2CCC)n(C)c1=O
-1.1%	C=CCSc1nnc(-c2cc(Br)ccc2N)c(=O)[nH]1
15.7%	Cc1ccc(Cn2ncn3c(cc4ccccc43)c2=O)cc1
15.2%	O=C(Nc1ccnn1C1CCN(CCCc2ccccc2)CC1)c1ccccc1
-13.5%	COC(=O)CCC(=O)NC(=S)Nc1ccc(S(=O)(=O)N2CCCC2)cc1
-3.4%	CCCC12CN3CCN(CC(C3)/C1=N\NC(=O)c1ccccc1N)C2
-0.4%	O=C(Nc1ccc2oc(-c3ccc4ccccc4c3)nc2c1)c1cccs1
1.7%	CCc1ccc(-n2nc(C)c3c(C)cc(=O)n(Cc4nc(-c5ccccc5)oc4C)c32)cc1
-3.0%	CCOC(=O)CSc1nc2c(cnn2-c2ccc(C)cc2)c(=O)[nH]1
13.9%	CC1=CC(C)C2C(=O)N(O)C(=O)C2C1 (stereo not given)
7.5%	O=C(NNc1nc(-c2ccccc2)cs1)c1cccs1
8.9%	O=C(O)Cc1sc(N/N=C\c2ccccc2)nc1-c1ccccc1
-24.1%	O=C1CC2(CCCC2)C(=O)N1CN1CCN(S(=O)(=O)c2ccc(Cl)c(Cl)c2)CC1
-24.0%	CCC(C)(O)c1[nH]c2ccc(C(F)(F)F)cc2c1C (stereo not given)
-6.9%	N#Cc1ccc(Oc2cc(C(F)(F)F)nc(-c3ccccn3)n2)cc1
6.5%	O=C(c1ccccc1)N1CN2CN(C(=O)c3ccccc3)CC([N+](=O)[O-])(C2)C1
?	CSc1cccc(NC(=S)N(Cc2ccccc2)Cc2cccnc2)c1
?	Cc1ccc(NC2=CC(c3ccccc3F)N(c3ccc(C)cc3)C2=O)cc1 (stereo not given)
-13.3%	S=C(Nc1ccccc1Cl)N1CCCCC1
11.0%	O=C(Nc1cccnc1Cl)c1cc(-c2cccc(O)c2)on1
-11.6%	O=C(Nc1ccc([N+](=O)[O-])cc1)c1cncc(Br)c1
4.7%	Cc1ccc(NC(=O)CN(C)C(=O)Cn2cc(C(F)(F)F)ccc2=O)cc1
1.8%	COc1ccc2oc(C(=O)NCCN3CCOCC3)c(C)c2c1OC
-4.5%	COC(=O)[C@@H](NC(=O)NC1CCN(Cc2ccccc2)CC1)C(C)C
-4.3%	O=C(/C=C/c1c(F)cccc1Cl)NCc1ccco1
15.5%	COc1ccc(S(=O)(=O)N/N=C(/C)c2cccc(NC(=O)c3ccccc3Cl)c2)cc1
-6.9%	NS(=O)(=O)c1ccc(CCNC(=O)CN2CCCCC2)cc1
4.0%	Cc1cccc(N(C)C(=O)c2cc3c(=O)[nH]c4ccc(C)cc4c3s2)c1
-10.1%	O=C(Nc1ccccc1F)c1ccc2c(c1)CCN2S(=O)(=O)c1ccccc1
-3.1%	Cc1ccc(S(=O)(=O)N2CCc3cc(C(=O)Nc4c(F)cccc4F)ccc32)cc1
18.9%	Cc1cc(C)c2c(N)c(C(=O)NNC(=O)c3ccccc3)sc2n1
?	Clc1ccccc1Cn1c(/C=C/c2ccco2)nc2ccccc21
7.0%	C=CCn1c(SCc2nnc(-c3ccccc3)o2)nnc1C(O)c1ccccc1 (stereo not given)
5.6%	Cc1cccc(C(=O)Nc2ccc(N3CC=C(c4ccccc4C)CC3)c(C(=O)O)c2)c1
1.2%	COc1ccc(S(=O)(=O)N2CCCCC2)cc1NC(=O)C1CC(=O)N(Cc2ccco2)C1 (stereo not given)
?	O=[N+]([O-])c1ccc2[nH]c(=S)sc2c1
21.7%	CCCC(CCC(=O)Nc1ccc(S(N)(=O)=O)cc1)C(=O)O (stereo not given)
-14.8%	CCN(CC)C(=O)C1CCN(c2ncnc3c2cnn3-c2ccc(C)cc2C)CC1
10.9%	Cc1ccc(OCC(=O)Nc2ccccc2C(=O)N2CCCC2)cc1
-1.1%	CCOC(=O)N1CCC(NCCNC(=O)c2ccccc2Cl)CC1
1.6%	CCOC(=O)Nc1cccc(C(=O)O)c1
-13.2%	O=C(CCc1ccco1)CCc1ccco1
12.2%	COCCn1c(C)cc(O)c(C(c2ccccc2)N2CCN(CCO)CC2)c1=O (stereo not given)
-9.9%	CN(c1cccc(NC(=O)c2cccc([N+](=O)[O-])c2)c1)S(C)(=O)=O
3.4%	Cc1cc(C(=O)O)oc(=O)c1
-24.4%	COc1cnc(-c2ccccc2)nc1Oc1ccc(Cl)cc1C
0.8%	Cc1ccc(C)c(CN2CCCNC2=O)c1
-0.6%	COc1ccc2nc(NC(=O)C3=NN(c4ccccc4)C(=O)CC3)sc2c1
5.7%	O=C1CCCC2=C1C(c1cccs1)n1ncnc1N2 (stereo not given)
?	O=C(NCc1ccco1)c1cc([N+](=O)[O-])ccc1N1CCCCC1
-3.6%	O=[N+]([O-])c1cccc(N=NN(CCO)c2cccc([N+](=O)[O-])c2)c1
-11.5%	C#CCOCCOCCOCCNc1nc(N2CCN(C(=O)[C@H](CCCCN)n3cc(CN)nn3)CC2)nc(N2CCN(C(=O)[C@H](CCCN=C(N)N)n3cc(C(N)[C@H](C)CC)nn3)CC2)n1 (stereo not given in full)

As a short view, some entries already given.
VDR inh	SMILES
-3.6%	O=[N+]([O-])c1cccc(N=NN(CCO)c2cccc([N+](=O)[O-])c2)c1
-11.5%	C#CCOCCOCCOCCNc1nc(N2CCN(C(=O)[C@H](CCCCN)n3cc(CN)nn3)CC2)nc(N2CCN(C(=O)[C@H](CCCN=C(N)N)n3cc(C(N)[C@H](C)CC)nn3)CC2)n1 (stereo not given in full)

Following part:
VDR inh	SMILES
27.6%	CCCCCCc1c(C)c2c(cc(C)c3c(C)coc32)oc1=O
-2.2%	COc1ccc(NC(=O)CC2C(=O)N(c3cccc(OC)c3)C(=O)N2C2CCCCC2)cc1 (stereo not given)
-4.5%	O=C(CCN1C(=O)c2ccccc2S1(=O)=O)Nc1nc2c(s1)CCCC2
8.3%	O=C1N(Cc2cccnc2)C[C@@H]2C[C@@H](c3ccccc3C(F)(F)F)N3CCC[C@@]123
1.5%	O=C(COC(=O)c1cc([N+](=O)[O-])ccc1N1CCOCC1)Nc1ncc(Cl)cc1Cl
-11.6%	O=[N+]([O-])c1cc(-c2csc(NCCc3nc4cc(C(F)(F)F)ccc4n3CCCO)n2)ccc1Cl
-11.9%	COc1ccc(N2CCN(C(=O)CSCc3ccc(C)cc3)CC2)cc1
79.4µM*	CCCCCc1c2c(cc(O)c1C(=O)O)OC(=O)c1cc(C(=O)CCCC)c(OC)cc1O2
-11.9%	COc1ccc(-c2cc(C(F)(F)F)nc(SCC(=O)NC(C)c3ccccc3)n2)cc1 (stereo not given)
13.6%	CC(=O)c1c(N2CCN(Cc3ccc4c(c3)OCO4)CC2)nc(=S)n(-c2ccccc2)c1C
5.8%	O=C(Oc1cc(-c2ccccc2)no1)c1ccc(Cl)cc1
-5.9%	c1ccc(C2CCC(N3CCNCC3)CC2)cc1 (stereo not given)
-9.9%	COc1ccc(-n2nc3c(c2NC(=O)CCCCl)CSC3)cc1
?	O=C(O)c1ccc(/C=C2\SC(=S)N(Nc3ccccc3)C2=O)cc1
23.9%	O=C1CCCC(O)=C1C=Nc1ccc2c(c1)oc1ccccc12
-5.4%	Nc1c(N(Cc2ccccc2)C(=O)COc2ccc(F)cc2)c(=O)[nH]c(=O)n1Cc1ccccc1
-6.9%	CC(NC(=O)/C=C/c1ccc(Br)cc1)c1ccccc1 (stereo not given)
-10.3%	COc1ccc(O)c(CN2CC3CCC(CC3)C2)c1
-9.1%	CS(=O)(=O)c1cccc(NC(=O)C2CCCN2S(=O)(=O)c2ccc(F)cc2)c1 (stereo not given)
-3.9%	CCN1CCCC1CNC(=O)c1ccc(CS(=O)(=O)c2ccccc2C)o1 (stereo not given)
-10.5%	Cc1cc(O)c(/C=N/Nc2ccc(F)cc2)c(=O)o1
-0.8%	Cc1ccc(/C=N/n2c(C)cc(C)c(C#N)c2=O)o1
-2.8%	O=c1c(-c2ccc(Br)cc2)coc2c(CN3CCOCC3)c(O)ccc12
18.7%	COc1ccccc1NC(=O)Nc1nc(CC(=O)Nc2cccc(F)c2)cs1
3.9%	COCCOC(=O)c1c(C)oc2ccc(OC(=O)c3ccc4c(c3)OCO4)cc12
-10.5%	COc1ccc(C(C(=O)NCC2CCCO2)N(C(=O)CNC(=O)c2cccs2)c2ccccc2)cc1OC (stereo not given)
